Screens deposited in PubChem by several laboratories.
Sa RN4220 lethal = S. aureus RN4220 growth inhibition; OD600, 16 h; inhibition, % (concentration not given with the values); actives 0.33% (n = 330,000); AID 1259311;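 active = z-score of -3 or lower and OD600 up to 0.18 on both plates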;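 also: plate controls were untreated cells for no effect and reference antibiotic for full effect; stock transfer was 100 nL into about 80 µL; one replicate is shown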
BJeLR lethal = kills HRASV12-expressing BJeLR cells; AID 1554; BJeLR (HRASV12) viability, CellTiter-Glo ATP luminescence, 48 h; reference of the scale not given here; inhibition, % (concentration not given with the values); actives 0.17% (n = 300,000);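 active = replicate mean above 50%; inconclusive = above 50% but judged a plate artefact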;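 also: 50 nL library stock added to about 25 µL; numbers are from one replicate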
Autofluor counter = flagged as autofluorescent in microsphere protease counterscreen | AID 624483 | actives 3.1% (n = 360,000) | compound autofluorescence counterscreen, microsphere flow cytometry; active compounds read high | fluorescence intensity (no concentration beside the values);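 active = at least 3 SD above the mean of all compounds, about 16000 in these data; inconclusive = too few beads counted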;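 also: 100 nL of 1 mM stock went into each well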
Mtb hypoxia rep = Mtb hypoxia fluorescent reporter inhibition; M. tuberculosis hypoxia-regulated fluorescent reporter, fluorescence; fluorescence inhibition, % (concentration not given with the values); actives 0.1% (n = 300,000); AID 1159583;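 active = 35 to 45% if threefold the growth effect, above 45% if 1.5-fold the growth effect; inactive = the rest, general growth blockers included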;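 also: wells of about 50 µL received 100 nL stock; 0% = vehicle wells and 100% = reference inhibitor wells; whole bacteria with a GFP reporter of the hypoxia response; strong numbers were not always called active; many hits fall short of the cut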
PrP UTR inh = suppresses PrP 5' UTR mRNA reporter expression | cell-based PrP 5' UTR mRNA reporter, plate reader | inhibition, % (no concentration beside the values) | actives 0.35% (n = 340,000) | AID 488862;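 active = every replicate at 50% or more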;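 also: 0 = median of the neutral control wells; tested in H4 reporter cells; numbers are from one replicate; inactives centre near -14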
Sa ugtP lethal = growth inhibition of S. aureus ugtP deletion strain. S. aureus RN4220 ugtP deletion, OD600 growth, 16 h; some inactives read as strong as hits. growth inhibition, % (concentration not given with the values). actives 0.54% (n = 330,000). AID 1259309;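 active = z-score under -3 and OD600 up to 0.15 on both plates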;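 also: plate controls were untreated wells for no effect and antibiotic for full effect; wells of about 80 µL received 100 nL stock; the first replicate is given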
Mtb hypoxia rep growth = second read-out of Mtb hypoxia rep, no call of its own (marks repeat the call); growth inhibition, %; measured here: M. tuberculosis growth (absorbance);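 0% = vehicle and 100% = reference antibiotic; read after six days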
An asterisk follows results filed as active; ? = inconclusive; · = no result given.

SMILES | Sa RN4220 lethal | BJeLR lethal | Autofluor counter | Mtb hypoxia rep | Mtb hypoxia rep growth | PrP UTR inh | Sa ugtP lethal
O=C(Nc1cnc2sccn2c1=O)c1ccc(Cl)cc1Cl | 3.0 | 16 | 22211* | 2 | 0 | -89 | 12
CCOC(=O)c1ccc[n+](CC(=O)c2ccc(NC(=O)c3ccccc3)cc2)c1 | -1.4 | -11 | 3991 | -13 | 3 | 3 | -1
COc1cc(C=NO)ccc1OCc1ccc(Cl)cc1 | 1.1 | · | · | 9 | -5 | · | 22
CC(Cc1ccccc1)=NNC(=O)CNC(=O)/C=C\c1ccccc1 | 1.4 | · | · | 0 | 0 | · | 11
Cc1ccc(-c2c(C(=O)NN=Cc3ccc(OC(C)C)cc3)nnn2-c2nonc2N)cc1 | 4.8 | · | · | -4 | -9 | · | 16
NC(=O)c1ccc(NC(=O)Cc2cccs2)cc1 | 4.0 | -2 | 4051 | -6 | -1 | -22 | 5
COC(=O)c1ccc(CON=Cc2ccc(OC)cc2OC)cc1 | -1.8 | · | · | 14 | 4 | · | 6
COc1ccc(C(=O)Nc2c(N)nc(SCC(=O)N3CCC(C)CC3)[nH]c2=O)cc1 | 3.7 | -8 | 5374 | 3 | -7 | -10 | 9
CCCCNC(=O)CCCCC(=O)NN=Cc1cccc(Cl)c1 | 3.2 | · | · | 2 | 1 | · | 2
C=CCNC(=O)c1ccccc1NC(=O)Cc1ccccc1[N+](=O)[O-] | 5.1 | 8 | 7911 | 7 | 11 | -27 | 12
CCc1ccc(C2=NN(C(C)=O)C(c3ccco3)C2)cc1 (stereo not given) | 10 | 7 | 4191 | -3 | -3 | -92 | -3
CCOC(=O)c1ccc(N2CCOCC2)c(NS(=O)(=O)c2ccc(F)cc2)c1 | 7.6 | 6 | 6624 | 3 | -6 | -22 | 6
N#CC(c1cccnc1)N1CCOCC1 (stereo not given) | 2.1 | 4 | 3813 | 8 | -3 | -19 | -4
CCC(=O)c1cn(CC(=O)Nc2ccccc2)c2ccccc12 | 6.2 | -9 | · | 10 | -3 | -10 | 3
COc1ccccc1NC(=O)c1ccccc1S(=O)(=O)c1ccc([N+](=O)[O-])cc1 | 3.8 | -7 | 5700 | 8 | 6 | -1 | 10
CCS(=O)(=O)N1CCCC(C(=O)NCCc2ccc(OC)c(OC)c2)C1 (stereo not given) | 7.1 | 2 | 2731 | 2 | -3 | -21 | -2
COc1ccc(CNC(=O)CN(C)Cc2ccccc2F)cc1OC | 5.3 | -2 | 3209 | 22 | 8 | -11 | 3
Cc1cc(/C=C(/C#N)C(=O)Nc2ccc(Cl)cc2)c(C)n1-c1cccnc1 | 1.9 | 8 | 2148 | 8 | 5 | -84 | -12
COc1ccccc1NC(=O)C(CC=C(Cl)Cl)C(C)=O (stereo not given) | 3.7 | -5 | 4624 | · | · | -19 | 5
C=CCOc1ccc(/C=C/C(=O)OCc2csc(CC(=O)Nc3ccccc3C)n2)cc1 | -3.6 | · | 6899 | 9 | 6 | -13 | -3
Cc1ccc(-n2nc(C)c3c(C)c(CCC(=O)NCc4ccco4)c(C)nc32)cc1 | -3.5 | 7 | 4435 | 8 | 3 | 11 | 11
Cc1csc(NC(=O)CSc2nnc(CCNC(=O)c3ccc(Cl)c(Cl)c3)n2C)n1 | 3.2 | -10 | 9778 | 0 | -6 | -20 | 1
O=C(CCNC(=O)N1CC(=O)Nc2ccccc21)NCc1cccc(Cl)c1 | 2.1 | 2 | 4789 | 10 | 4 | -7 | 3
CCCNC(=O)c1cc(S(=O)(=O)N2CCc3ccccc32)cn1C | 13 | 11 | 6093 | -7 | 5 | -1 | 8
O=C1CC(C(F)(F)C(F)(F)C(F)(F)F)=Nc2ccccc2N1 | 1.4 | -13 | 4165 | 11 | 11 | -11 | 2
COc1ccccc1NC(=O)Nc1ccc(C(N)=O)cc1 | 5.7 | 14 | 2465 | 11 | 7 | -4 | 8
COC(=O)c1ccc(CNC(=O)CCC(=O)N2CCOCC2)cc1 | -1.6 | · | 3987 | -8 | 5 | -9 | -4
O=C(Cc1ccccc1)Nc1nnc(-c2ccco2)o1 | 5.2 | 3 | 3252 | 5 | 6 | 0 | 3
CC(C)c1ccc(/C=C/c2[nH]c(=O)[nH]c(=O)c2[N+](=O)[O-])cc1 | 8.6 | -14 | 3823 | 10 | 6 | -26 | 0
CC(C)Oc1ccc(C(CCN)C2CCCCC2)cc1 (stereo not given) | · | 11 | 4093 | · | · | -25 | ·

The list goes on; it opens with the five that closed the last part.
SMILES | Sa RN4220 lethal | BJeLR lethal | Autofluor counter | Mtb hypoxia rep | Mtb hypoxia rep growth | PrP UTR inh | Sa ugtP lethal
COc1ccccc1NC(=O)Nc1ccc(C(N)=O)cc1 | 5.7 | 14 | 2465 | 11 | 7 | -4 | 8
COC(=O)c1ccc(CNC(=O)CCC(=O)N2CCOCC2)cc1 | -1.6 | · | 3987 | -8 | 5 | -9 | -4
O=C(Cc1ccccc1)Nc1nnc(-c2ccco2)o1 | 5.2 | 3 | 3252 | 5 | 6 | 0 | 3
CC(C)c1ccc(/C=C/c2[nH]c(=O)[nH]c(=O)c2[N+](=O)[O-])cc1 | 8.6 | -14 | 3823 | 10 | 6 | -26 | 0
CC(C)Oc1ccc(C(CCN)C2CCCCC2)cc1 (stereo not given) | · | 11 | 4093 | · | · | -25 | ·
CCOC(=O)C1(CCCc2ccccc2)CCN(S(C)(=O)=O)CC1 | 4.7 | -13 | 3936 | 7 | 10 | -18 | 5
Cc1ccc(N(C(=O)c2ccc(S(=O)(=O)N(C)C)cc2)C2C=CS(=O)(=O)C2)cc1 (stereo not given) | 5.8 | 0 | 2041 | -4 | 1 | -2 | 12
O=C(NN=Cc1cccc2ccccc12)c1ccncc1 | 0.8 | · | · | · | · | · | 2
CCOc1ccc(C(=S)N2CCOCC2)cc1OC | 4.9 | -1 | 2590 | 11 | 9 | -11 | 1
O=C(CNC(=O)c1cccc(S(=O)(=O)N2CCc3ccccc32)c1)Nc1ccccc1Br | 4.8 | · | ? | 1 | -6 | -12 | 4
Cc1sc2ncnc(NCCCO)c2c1C | 0.6 | 6 | 5824 | 5 | 8 | -20 | 6
COc1ccc(CNC(=O)COC(=O)c2ccc3ccccc3n2)cc1 | -3.9 | · | 11062 | 11 | 12 | -24 | -2
CCN(CC)C(=O)C(=O)Nc1cccc(Br)c1 | 2.9 | · | 2498 | 14 | 7 | -46 | 7
COc1cccc(CCNC(=O)CC2C(=O)NCCN2CC(C)(C)C)c1 (stereo not given) | -0.4 | -7 | 4688 | 1 | 2 | -12 | -1
CCN1CCN(S(=O)(=O)c2ccc3ccccc3c2)CC1 | 3.8 | 4 | 10504 | 3 | 8 | -30 | 1
CCC(=O)NCCCc1nc2ccccc2n1Cc1ccccc1F | -0.6 | 2 | 4300 | 10 | 7 | -20 | 2
Cc1cc(C)nc(/N=C(\N)N(Cc2ccccc2)Cc2ccccc2)n1 | · | 3 | 3781 | · | · | -21 | ·
COc1ccc(N(C(=O)CCl)C(C(=O)NCCc2ccccc2)c2cccs2)cc1Cl (stereo not given) | 36 | 139* | 2047 | 7 | 15 | -13 | 8
Cc1ccc(NC(=O)COC(=O)Cn2cnc3c2c(=O)n(C)c(=O)n3C)cc1 | -3.7 | · | 3857 | 3 | -7 | -12 | -4
O=C(O)C1CCCCC1C(=O)Nc1cccc(Cl)c1Cl (stereo not given) | 3.0 | -4 | 4160 | -3 | 0 | 0 | -4

At a glance, some entries already given.
SMILES | Sa RN4220 lethal | BJeLR lethal | Autofluor counter | Mtb hypoxia rep | Mtb hypoxia rep growth | PrP UTR inh | Sa ugtP lethal
CCN(CC)C(=O)C(=O)Nc1cccc(Br)c1 | 2.9 | · | 2498 | 14 | 7 | -46 | 7
COc1cccc(CCNC(=O)CC2C(=O)NCCN2CC(C)(C)C)c1 (stereo not given) | -0.4 | -7 | 4688 | 1 | 2 | -12 | -1
CCN1CCN(S(=O)(=O)c2ccc3ccccc3c2)CC1 | 3.8 | 4 | 10504 | 3 | 8 | -30 | 1

Further compounds:
SMILES | Sa RN4220 lethal | BJeLR lethal | Autofluor counter | Mtb hypoxia rep | Mtb hypoxia rep growth | PrP UTR inh | Sa ugtP lethal
Clc1ccc(-c2ccc(SCc3ccccn3)nn2)cc1 | 14 | -4 | 4654 | 16 | 11 | -80 | -2
COc1ccc(CNC(=O)CCNS(=O)(=O)c2cccc3nsnc23)cc1 | 4.7 | 8 | 4913 | 9 | 5 | -31 | 6
O=C(Oc1ccc(C(=S)N2CCOCC2)cc1)c1ccccc1 | 3.2 | 1 | 3520 | -1 | 10 | -11 | -11
Cc1ccc(/C=N/NC(=O)c2nnn(-c3nonc3N)c2CNc2ccccc2)cc1 | · | 17 | 5767 | · | · | -30 | ·
O=[N+]([O-])c1ccccc1NN=Cc1c[nH]c2ccccc12 | -9.6 | · | · | · | · | · | -4
CNC(=O)c1c(NC(=O)CCS(=O)(=O)c2ccc(F)cc2)sc(C)c1C | · | -6 | ? | · | · | -25 | ·
O=C(Nc1cccc(C(F)(F)F)c1)C1(c2ccccc2)CC1 | -1.5 | -7 | 2526 | -3 | 6 | -31 | 8
Cc1ccc(CS(=O)(=O)Cc2ccc(C(=O)N3CCC4(CC3)OCCO4)o2)cc1 | 4.5 | 1 | 9394 | 7 | 7 | 4 | 3
CCN1CCN(c2nc(Nc3ccc(C)c(C)c3)nc(N)c2[N+](=O)[O-])CC1 | 9.3 | -16 | 2548 | 6 | 6 | -11 | -11
CCc1cc2c(=O)[nH]c(-c3ccncc3)nc2s1 | 8.4 | 4 | 2909 | 10 | 3 | -14 | 4
CN1CCN(C(=O)C2CCC(=O)N(Cc3cccc(C(F)(F)F)c3)C2)CC1 (stereo not given) | 4.2 | 4 | 6171 | 8 | -1 | -14 | 0
COc1cc(OC)c(NC(=O)Cn2cccc2)cc1Cl | 6.4 | 2 | 11078 | 12 | 5 | -9 | 13
CCOC(=O)/C(C#N)=C\c1ccc2c(c1)OCO2 | 3.4 | -9 | 4001 | 1 | -1 | -40 | 10
Cc1ccc(S(=O)(=O)NCc2nc3ccccc3[nH]2)cc1 | 1.8 | 0 | 4540 | 5 | 3 | -10 | 12
COCCOC(=O)C1=C(C)NC2=C(C(=O)CC(C)(C)C2)C1c1cc2c(cc1Br)OCO2 (stereo not given) | -0.2 | -5 | 6087 | -8 | -7 | -21 | 10
Cc1ccc(C2(C)NC(=O)N(CC(=O)N3CCN(S(=O)(=O)c4cccs4)CC3)C2=O)cc1 (stereo not given) | -1.3 | -4 | · | -2 | -7 | -22 | -1
O=[N+]([O-])c1ccc(C[n+]2cc(-c3ccc(Cl)c(Cl)c3)n3c2CCCCC3)cc1 | -4.2 | 12 | 6594 | 0 | 1 | -17 | -17
Cc1cccc(C)c1OCC1CNC(=O)O1 (stereo not given) | · | -4 | 4176 | · | · | -18 | ·
CC(=O)Cn1cnc2scc(-c3ccc(C)c(C)c3)c2c1=O | -2.5 | -8 | 4014 | 2 | 0 | -29 | 0
COc1cc2c(cc1OC)C1(NCC2)C(=O)Nc2ccccc21 (stereo not given) | 7.4 | -7 | 16750* | 2 | -3 | 3 | 11
Nn1c(SCC(=O)Nc2ccc(F)c(F)c2)nnc1C1CCCCC1 | 22 | -18 | 8551 | 6 | 12 | -10 | -1
C=CCSc1ncccc1C(=O)NCCc1ccc(Cl)cc1 | 14 | -2 | 7097 | 18 | 4 | -24 | 20
Clc1ccc(OCCN2CCOCC2)cc1 | 0.1 | -3 | 3526 | 5 | 2 | -36 | 8
Cc1ccc(NC(=O)CCC(=O)NN=Cc2ccco2)c(C)c1 | 6.4 | · | · | 12 | 12 | · | -4
CCN1C(=O)C(C)S/C1=N\S(=O)(=O)c1ccc(F)cc1 (stereo not given) | · | 1 | 2817 | · | · | -9 | ·
O=c1[nH]c2ccccc2cc1-c1noc(-c2cccnc2)n1 | 4.4 | 4 | 8656 | 4 | 17 | -34 | -5
Cn1ccnc1SCC(=O)c1c(N)n(C)c(=O)n(C)c1=O | 4.4 | · | 3313 | 1 | 1 | -16 | 4
